# PKD1 inh: PKD1 (human) kinase inhibition | Q15139 | PKD1 kinase fluorescence polarization assay | inhibition, %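 (about 10 µM by stock and volumes)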 | hit rate 0.056% among 200,000 | AID 797;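 active means inhibition of 50% or more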;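 further: controls were vehicle for no effect and a reference inhibitor for full effect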
# GALR2 ag: agonists of human galanin receptor 2 (GALR2); GALR2-expressing cells, agonist activation read-out; activation, %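 (tested at 5 µM)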; hit rate 0.48% among 140,000;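 active means above mean plus 3 SD of all compounds, about 5% in these data, not always enough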;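 further: 0% = vehicle buffer wells and 100% = reference agonist at full effect; tested in CHO reporter cells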
# Target sequence (O43603 whole entry, looked up): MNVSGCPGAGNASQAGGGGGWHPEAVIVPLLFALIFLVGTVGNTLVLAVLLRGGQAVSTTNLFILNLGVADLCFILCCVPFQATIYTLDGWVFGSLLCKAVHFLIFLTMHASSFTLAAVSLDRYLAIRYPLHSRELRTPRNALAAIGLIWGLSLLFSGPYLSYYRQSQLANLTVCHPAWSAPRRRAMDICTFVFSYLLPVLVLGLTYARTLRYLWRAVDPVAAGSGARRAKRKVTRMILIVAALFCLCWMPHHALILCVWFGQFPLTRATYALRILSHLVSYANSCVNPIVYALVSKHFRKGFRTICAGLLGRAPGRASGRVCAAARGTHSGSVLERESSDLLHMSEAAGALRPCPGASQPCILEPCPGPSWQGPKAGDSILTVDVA
# RGS16-Gao: RGS16-Galphao interaction regulator (human) | bead-based flow cytometry RGS16-Galphao binding, fluorescence; actives lie on both sides | AID 1441 | hit rate 0.38% among 220,000 | O15492+P09471 | binding response (% of control), % at 10 µM;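 active means below 25% or above 175%, edge rows of some plates excepted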;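 further: Galphao activated by GDP with aluminum fluoride before binding; 100% = wells without compound and 0% = beads without RGS; some results beyond the cut were filed as inactive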
# Target sequence (O15492 whole entry, looked up): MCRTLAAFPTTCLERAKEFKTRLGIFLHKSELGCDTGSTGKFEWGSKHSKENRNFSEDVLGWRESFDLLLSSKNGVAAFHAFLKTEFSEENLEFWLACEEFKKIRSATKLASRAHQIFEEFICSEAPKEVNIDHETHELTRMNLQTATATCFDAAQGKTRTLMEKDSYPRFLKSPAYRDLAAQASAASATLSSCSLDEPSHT
# Target sequence (P09471 whole entry, looked up): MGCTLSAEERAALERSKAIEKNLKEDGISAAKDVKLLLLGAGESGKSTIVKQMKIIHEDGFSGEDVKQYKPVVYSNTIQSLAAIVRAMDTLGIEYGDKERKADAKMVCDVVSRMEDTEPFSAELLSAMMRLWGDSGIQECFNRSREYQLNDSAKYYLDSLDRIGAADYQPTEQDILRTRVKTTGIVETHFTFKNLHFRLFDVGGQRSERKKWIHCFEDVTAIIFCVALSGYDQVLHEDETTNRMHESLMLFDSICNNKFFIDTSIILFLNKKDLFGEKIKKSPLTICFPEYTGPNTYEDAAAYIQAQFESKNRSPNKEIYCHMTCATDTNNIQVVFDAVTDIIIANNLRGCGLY
# HSV replic up: HSV replication enhancement; HSV replication augmentation in cells, fold increase; maximum fold increase; hit rate 0.005% among 220,000;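 active means peak rise of 1.5-fold or more in the series; inconclusive means self-fluorescent or not available for retest; tested in PC3 cells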;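 further: first round at 10 µM; read as green reporter fluorescence; hits show the peak of a series up to 25 µM; 1 = signal of infected wells without compound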
# INS promoter inh: TRM-6 insulin promoter activity inhibition. TRM-6 cells (human fetal islet line), insulin promoter-eGFP reporter, imaging; reporter expression induced with tamoxifen. inhibition, % at 2 µM. hit rate 0.9% among 130,000;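 active means inhibition above the mean plus 3 SD, with well images judged a real hit on visual review, cut at about 60% in these data, passing the limit was not always enough; inconclusive means inhibition over the cutoff but images rejected on review; inactive means inhibition not above the cutoff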
# INS promoter inh cell count: also measured in INS promoter inh; calls as there; normalized cell count, %; measured here: cell count, toxicity; reference of the scale not given here;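 cells exposed to compound for 48 h; stained nuclei by imaging scaled within each plate; lower means fewer cells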
# HSV replic up primary fold: second read-out of HSV replic up, no call of its own (marks repeat the call); fold increase; compound at 10 µM; measured here: primary screen fold increase 10 uM; tested in PC3 cells;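 GFP signal in the first replicate; 1 = infected wells without compound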
# * marks the source's active call; other numbers are inactive results; i = inactive; ? = inconclusive; / = not tested or not shown.
# Sample of the layout, 2 compounds:
smiles	RGS16-Gao	INS promoter inh cell count	GALR2 ag	PKD1 inh	HSV replic up	HSV replic up primary fold	INS promoter inh
Cc1ccc(NC(=O)COC(=O)CCc2c[nH]c3ccccc23)cc1[N+](=O)[O-]	102	/	-1.2	1	i	0.87	/
CCOc1ncccc1C(=O)NCc1ccccc1F	91	/	/	-4	i	0.89	/

# Results, previewed entries included:
smiles	RGS16-Gao	INS promoter inh cell count	GALR2 ag	PKD1 inh	HSV replic up	HSV replic up primary fold	INS promoter inh
Cc1ccc(NC(=O)COC(=O)CCc2c[nH]c3ccccc23)cc1[N+](=O)[O-]	102	/	-1.2	1	i	0.87	/
CCOc1ncccc1C(=O)NCc1ccccc1F	91	/	/	-4	i	0.89	/
O=C(NCCCN1CCOCC1)c1ccc(S(=O)(=O)N2CCOCC2)cc1	97	112	-1.2	-3	i	0.88	-6
CCC(=O)Nc1ccc(C(=O)CSc2nnc(CNc3ccc(Cl)cc3)o2)cc1OC	92	/	-2.1	5	i	0.73	/
C=CC(=O)NC(C)(C)Cc1ccccc1	100	199	-4.3	-12	i	0.94	-16
CCCn1c(C(C)NC(=O)c2ccccc2)n[nH]c1=S (stereo unspecified)	102	/	/	/	i	1	/
CCCCn1c(NC(=O)c2ccco2)c(S(=O)(=O)c2ccc(C)cc2)c2nc3ccccc3nc21	102	102	-0.5	-7	i	1.1	-121
O=C1NN=C(c2ccc(Cl)cc2)CC1c1c[nH]c2ccccc12 (stereo unspecified)	103	91	/	-13	i	0.9	-19
COc1ccc(N(Cc2nnc3n2CCCCC3)C(=O)Nc2ccccc2)cc1	101	/	/	-7	i	0.89	/
COc1ccc(NC(=O)CCC(=O)N(Cc2ccc(OC)c(OC)c2)c2nccs2)cc1	112	87	-1.2	-7	i	0.92	67
CS(=O)(=O)N1CCN(C(=O)c2cc(-c3ccccc3)nc3ccccc23)CC1	102	104	-0.5	5	i	1.1	-9
O=C(OCCCN1CCCCC1)c1ccc(O)cc1	102	92	-4.7	2	i	1	-258
CCOC(=O)C1CCCN(c2c(NCCCN(C)Cc3ccccc3)c(=O)c2=O)C1 (stereo unspecified)	99	/	-0.9	-18	i	1.2	/
CCOC(=O)C1CCCN(c2c(NCCCN(CC)c3ccccc3)c(=O)c2=O)C1 (stereo unspecified)	97	/	0.4	6	i	1.1	/
O=C(COc1ncnc2c(Cl)cc(Cl)cc12)N1CCCCC1	100	/	-2.6	-2	i	0.75	/
O=C(CNC(=O)c1ccc(Cl)cc1)Nc1ccccc1C(F)(F)F	104	/	/	-6	i	0.96	/
COc1ccc(NC(=S)N(CCO)Cc2ccccc2)cc1	100	/	/	-1	i	0.96	/
COc1ccc(C/C(C)=N/NC(=O)c2cccnc2)cc1	104	132	-1.1	9	i	0.85	47
O=C(CCn1nc(-c2ccccc2)c2ccccc2c1=O)NCC1CCCO1 (stereo unspecified)	107	73	-2.4	-23	/	/	-20
CCCc1nnc(NC(=O)C(CC)OC(=O)c2cc(C)nc3ccccc23)s1 (stereo unspecified)	96	138	-0.6	7	i	0.8	30
CCN(CC)CCNC(=O)/C(=C\c1cccn1C)NC(=O)c1cccs1	100	98	-1.4	-7	i	1	65
O=[N+]([O-])c1ccc2[nH]c(O)c(N=NC(=S)NCC3CCCO3)c2c1 (stereo unspecified)	41	82	0.8	-11	i	0.82	29
COc1ccc(-c2nnc3n(CCc4ccccc4)c(=O)c4ccccc4n23)c(OC)c1	99	/	0.9	-14	i	1.2	/
CCCN1C2CCCC1CC(NC(=O)c1ccccc1OCC)C2 (stereo unspecified)	102	70	-2.0	-6	i	0.82	-15
COc1ccc(CCN(Cc2ccccn2)C(=S)Nc2ccccc2Cl)cc1OC	99	100	/	-5	i	0.9	-33
CCCc1c(C)[nH]c2ccc(NC(C)=O)cc2c1=O	100	154	-1.6	-9	i	1.2	20
Cc1ccc2[nH]c(=O)cc(C(=O)OCC(=O)c3ccccc3)c2c1	106	26	-0.7	3	i	0.95	50
O=C(CN(C(=O)CSc1nc2ccccc2o1)c1ccccc1F)NC1CCCCC1	84	92	-1.4	-6	i	0.95	3
Cc1cc(N(CC(=O)NC(C)C)S(C)(=O)=O)ccc1Br	104	75	-0.8	-9	i	1.2	-14
COCCN1C(=O)C(O)=C(C(C)=O)C1c1ccc(F)cc1 (stereo unspecified)	111	/	-1.1	-9	i	0.92	/
CCOc1ncccc1C(=O)OCC(=O)Nc1cc(C)ccc1C	69	118	-3.1	2	i	0.9	0
O=C(c1cc(COc2ccc3ncccc3c2)on1)N1CCCCCC1	100	/	/	2	i	0.95	/
O=C(NNC(=S)NC(=O)c1cccnc1)c1ccc(Cl)cc1	69	54	-1.5	-4	i	0.97	58
Cc1nn(C)c(N)c1C(O)(c1nccn1C)C(F)(F)F (stereo unspecified)	105	/	-0.3	-15	/	/	/
CCCC(C(=O)NC1CCCC1)N(CC1CCCO1)C(=O)c1snc(C(N)=O)c1N (stereo unspecified)	86	75	0.3	7	i	1.1	-7
O=C(Nc1sccc1C(=O)N1CCOCC1)c1cccnc1	84	88	-2.0	-4	i	0.89	0
N=c1sccn1CC(=O)Nc1ccccc1-c1ccccc1	89	/	-0.4	4	i	0.95	/
O=C(O)c1ccccc1-c1ccc(/C=c2\sc3nc4cc(Br)cnc4n3c2=O)o1	80	/	-1.4	-4	/	/	/
CCCc1nc(N)c(C#N)c(-c2ccco2)c1CC	100	105	0.5	4	i	0.78	-51
COc1ccc(NC(C)=O)cc1S(=O)(=O)N1CCN(C(=O)c2ccccc2F)CC1	98	/	/	/	i	0.86	/

# Taken from above.
# HSV replic up primary fold result of `COc1ccc(NC(C)=O)cc1S(=O)(=O)N1CCN(C(=O)c2ccccc2F)CC1` is entered as 0.86
# GALR2 ag result of `O=C(NNC(=S)NC(=O)c1cccnc1)c1ccc(Cl)cc1` is entered as -1.5
# RGS16-Gao result of `CCCc1nc(N)c(C#N)c(-c2ccco2)c1CC` is entered as 100
# GALR2 ag result of `CCCC(C(=O)NC1CCCC1)N(CC1CCCO1)C(=O)c1snc(C(N)=O)c1N` (stereo unspecified) is entered as 0.3

# (cont.)
smiles	RGS16-Gao	INS promoter inh cell count	GALR2 ag	PKD1 inh	HSV replic up	HSV replic up primary fold	INS promoter inh
Clc1ccc(CNc2ccccc2NCc2ccc(Cl)nc2)cn1	106	/	/	8	i	1.1	/
CCC1CCCCN1C(=O)Nc1ccc(F)cc1 (stereo unspecified)	90	102	0.8	1	i	0.98	26
COCCCNC(=S)NNC(=S)Nc1ccccc1	98	/	/	/	i	1	/
O=C(COC(=O)CNC(=O)c1ccc(Cl)cc1)Nc1cccc(S(=O)(=O)N2CCCC2)c1	94	/	/	/	i	1.1	/
CC(=O)c1sc(NC(=O)c2ccc(C)c(C)c2)nc1C	107	33	/	3	i	0.89	64
O=C(Nc1cc(N2CCOCC2)ncn1)Nc1cccc2ccccc12	96	134	-0.9	0	i	0.89	43
CC(C)(C)C(=O)/C=C(N)/C=C/c1ccccc1	97	/	-2.6	-7	i	0.77	/
COCCn1c(NC(=S)NC(=O)C2CC2)cc(=O)[nH]c1=O	101	/	/	-4	i	0.91	/
CN1CCN(C(=O)CN(c2ccccc2)S(=O)(=O)N(C)C)CC1	100	/	/	10	i	1.1	/
O=C(NCCCn1ccnc1)c1cc2ccccc2o1	105	/	/	-2	i	0.82	/
CCOC(=O)C(C)n1nc(/C=C/c2ccc(OC)cc2)ccc1=O (stereo unspecified)	103	47	/	-2	i	0.92	32
COC(=O)c1cc(NC(=O)c2c(Cl)nc3sccn23)cc(C(=O)OC)c1	115	132	-1.2	1	?	/	-16
CCN(CC)C(=O)c1cc2c(=O)oc3ccccc3c2s1	107	123	-3.2	12	i	0.85	0
Brc1ccc(CSc2nnc(-c3ccco3)o2)cc1	136	85	1.0	-11	i	0.97	24
Cc1ccc(S(=O)(=O)Nc2nncs2)cc1	108	/	-1.6	0	i	1.2	/
O=C(NCC1(c2ccccc2)CCCC1)c1cccc(Br)c1	99	107	2.1	5	i	0.94	-9
CCSc1nnc(-c2cc3c(s2)-c2ccccc2CC3)o1	112	88	-2.5	-3	i	1.1	7
C/C(CC(=O)Nc1ccc2c(c1)OCO2)=N\NC(=O)c1ccc(N)cc1	103	/	/	/	i	0.87	/
O=C(COc1ccc(S(=O)(=O)N2CCOCC2)cc1)N1CCc2ccccc2C1	94	/	/	/	i	0.97	/
O=C(NCCCN1CCOCC1)c1cc(-c2ccc(Cl)cc2)on1	220	113	-0.1	-6	i	0.77	20
CC(=O)N(/N=C/c1ccc([N+](=O)[O-])o1)c1nc2ccccc2c(=O)n1-c1ccccc1	98	/	/	/	i	0.9	/
COc1ccccc1OCCn1c(CO)nc2ccccc21	99	/	-3.2	-4	i	0.68	/
Cc1ccc(NC(=S)N2CCC(N(C)CC3CCCO3)CC2)c(C)c1 (stereo unspecified)	103	/	-3.4	-1	i	0.96	/
O=[N+]([O-])c1ccc(NC(=S)N/C(=N/CS(=O)(=O)c2ccccc2)c2ccccc2)cc1	97	178	-1.0	3	i	1.1	23
CCN=c1sc2ccccc2n1CC(O)COc1ccccc1 (stereo unspecified)	99	164	-0.3	11	i	0.88	3
Cc1cccc(N2CC(C(=O)Nc3nnc(SCC(=O)Nc4cc(C)on4)s3)CC2=O)c1 (stereo unspecified)	100	88	0.7	-7	i	0.93	-29
COc1ccccc1OCC(=O)Nc1nonc1NC(=O)COc1ccccc1OC	172	123	-1.8	7	i	0.97	-15
Cc1cc(C)c2c(n1)SCC(=O)N2CC(=O)NCCC1=CCCCC1	115	/	-0.6	-6	i	0.85	/
O=C1CSC(=Nc2cc(Cl)ccc2Cl)N1	24	127	27*	-9	i	0.99	18
COc1ccccc1CNC(=O)CCc1nc2ccccc2c(=O)[nH]1	101	86	0.5	-4	i	0.95	7
COC(=O)c1ccc(CSCC(=O)Nc2cc(OC)cc(OC)c2)o1	105	/	0.7	11	i	1.1	/
O=C(O)c1cc(-c2ccc(Cl)s2)nc2ccccc12	96	/	/	2	i	0.97	/
Fc1ccc(/C=N/NC(=S)Nc2cccnc2)cc1	102	101	/	-4	i	0.95	14
Cc1ccc(S(=O)(=O)C2(C(=O)N3CCN(c4cc(C)ccc4C)CC3)CC2)cc1	100	90	/	-7	i	1	-93
O=C(NCCOc1ccccc1Cl)C(=O)Nc1ccccc1	106	112	-2.0	-15	i	0.91	0
C=CCC(=O)N1CCCC(CNC(=O)c2ccc(-c3ccccc3)cc2)C1 (stereo unspecified)	99	/	/	-8	i	0.96	/
CCOC(=O)C1CCN(Cc2ccc(F)c(F)c2)CC1	111	160	-0.7	-3	i	0.76	35
COc1ccc(NC(=O)CCN2CCCC2)c(OC)c1	97	96	-1.3	-6	i	0.96	24
O=C(Nc1ccc(Cl)cc1)N1N=CCC1c1ccccc1 (stereo unspecified)	100	/	/	/	i	1.1	/
CCN1CCN(c2nc(C)c3c(n2)CC(C)CC3=O)CC1 (stereo unspecified)	102	/	/	-2	i	1	/
CC1Cc2ccccc2N1CC(=O)Nc1ccc(S(=O)(=O)N(C)C)cc1 (stereo unspecified)	103	/	/	/	i	0.92	/
COC(=O)Cc1[nH]c(=O)[nH]c1C(=O)OC	103	/	/	/	i	1.1	/
CN(C)CCNC(NC(=O)c1cccs1)C(Cl)(Cl)Cl (stereo unspecified)	113	/	-2.2	-4	i	1.1	/
Cc1ccc(S(=O)(=O)N(C)C)cc1NC(=O)CCc1c[nH]c2ccccc12	101	104	/	-4	i	0.97	11
Cc1ccc(C)c(NC(=O)c2ccccc2O)c1	97	/	-3.0	2	i	0.91	/
Cc1cccc(Oc2ccc(NC(=O)c3ccccc3C(=O)O)cc2)c1	99	/	/	/	i	0.82	/
COc1cc(C=O)ccc1OCCOCCOc1ccc(Cl)cc1	102	88	-1.7	-4	i	0.95	23
N#Cc1c(SCC(=O)Nc2ccccc2)nsc1SCC(=O)Nc1ccccc1	105	/	-0.5	-5	i	1.1	/
COc1ccc(C2C(C(C)=O)=C(C)N=c3s/c(=C\c4cc(C)n(C)c4C)c(=O)n32)c(OC)c1 (stereo unspecified)	98	/	1.8	-18	?	/	/
Cc1cccc(OCCCC(=O)Nc2ccc(N3CCCCC3)cc2)c1C	97	/	-1.7	-1	i	1.1	/
O=C(O)c1cc2c(ccc3ccccc32)[nH]1	103	133	-4.5	5	i	0.99	55

# Screening results: PubChem BioAssay, several laboratories
